Screening results as filed in PubChem BioAssay.
Cruzain inh noDet: blocks cruzain activity in detergent-free assay; P25779; purified cruzain, Z-FR-AMC fluorescence, no detergent; Potency, µM, for the others: max response, negative = inhibition, most hits filed as inhibitors; hit rate 2.3% among 200,000; AID 1476; active = well fitted curve in the direction sought with a large enough effect; inconclusive = small, poorly fitted or top-dose-only effect, or another doubt; inactive = no such curve, though single readings can be large; an effect the other way counts as inactive or inconclusive;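 also: plate controls were enzyme without inhibitor for no effect and buffer without enzyme for full effect; nearly all actives have a fitted effect of over 40% in size; top concentration of the series not given in the record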
Target sequence (P25779 123-467 limits assumed): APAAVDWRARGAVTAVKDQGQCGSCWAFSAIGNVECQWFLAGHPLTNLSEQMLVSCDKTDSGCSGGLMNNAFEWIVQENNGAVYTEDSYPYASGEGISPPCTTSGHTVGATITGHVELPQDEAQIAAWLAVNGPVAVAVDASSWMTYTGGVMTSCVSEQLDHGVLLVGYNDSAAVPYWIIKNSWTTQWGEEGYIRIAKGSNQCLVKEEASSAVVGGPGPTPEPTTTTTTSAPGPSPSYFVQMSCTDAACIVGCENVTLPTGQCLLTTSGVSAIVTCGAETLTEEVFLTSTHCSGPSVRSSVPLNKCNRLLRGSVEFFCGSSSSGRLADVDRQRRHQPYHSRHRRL
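Purified cruzain at 1.5 nM, pre-incubated 15 min with compound at room temperature in 100 mM sodium acetate pH 5.5, 5 mM DTT, 0.00005% Triton X-100. Reaction started with 2 uM Z-FR-AMC; AMC fluorescence increase over 60 s gives rate.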
2A StopGo: lowers the luciferase signal of an FMDV 2A StopGo reporter. Potency, µM (doses to about 57.9 µM), without a hit: top-dose signal change, negative = less light. hit rate 1.2% among 410,000. human cells with a luciferase reporter of 2A StopGo recoding; control for the full effect not named in the record; active = well fitted falling curve with a large enough effect; inconclusive = small, poorly fitted or top-dose-only effect; inactive = no such curve, though single readings can be large or run the other way; tested in HEK293T cells; also: % is scaled to controls: 0 for no effect and ±100 for the full control effect; nearly all actives have a fitted effect of over 45% in size; luciferase light after 4 h
LASV entry inh: blocks Lassa virus binding to or entry into cells | Lassa virus pseudotype entry inhibition, cell reporter; control for the full effect not named in the record | AID 540256 | Potency, µM (series often up to 37.9 µM), without a hit: at the top dose activity change, negative = inhibition, hits mostly inhibitors | hit rate 1.2% among 300,000; active means well fitted inhibition curve with a large enough effect; inconclusive means small, poorly fitted or top-dose-only effect, or effect the other way; inactive means flat fitted curve, though single readings scatter; tested in HEK293 cells; also: % is scaled to controls: 0 for no effect and ±100 for the full control effect; nearly all actives have a fitted effect of over 50% in size; luciferase read-out
NS1 inh: influenza NS1 inhibition. S. cerevisiae slowed by influenza A NS1, growth recovery by OD600. Potency, µM (titrated, usually from 46.1 µM), for the others: at the top dose activity, positive = more growth. hit rate 0.4% among 270,000; also: actives are rising curves; nearly all actives have a fitted effect of over 50% in size
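Growth recovery, yeast-based: influenza A NS1 expressed in S. cerevisiae causes slow growth, and suppressors are detected by OD600. The parent strain without NS1 is used as positive control.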
Cruzain inh Det: cruzain (T. cruzi) inhibition with detergent; purified cruzain, Z-FR-AMC fluorescence, 0.01% Triton; P25779; hit rate 0.43% among 200,000; Potency, µM, without a hit: max response, negative = inhibition, usual class: inhibitors; AID 1478; active = well fitted curve in the direction sought with a large enough effect; inconclusive = small, poorly fitted or top-dose-only effect, or another doubt; inactive = no such curve, though single readings can be large; an effect the other way counts as inactive or inconclusive;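 also: plate controls were neutral wells for no effect and buffer without enzyme for full effect; nearly all actives have a fitted effect of over 40% in size; top concentration of the series not given in the record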
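Z-FR-AMC hydrolysis (2 uM substrate) by cruzain (1.5 nM) monitored kinetically at ex 360/em 450 nm after 15 min room-temperature compound exposure; 0.01% Triton X-100, pH 5.5, 5 mM DTT.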
RE007 growth inh: less growth of the S. pombe RE007 Vpr strain; AID 651644; S. pombe RE007 Vpr strain, BacTiter-Glo ATP luminescence, 24 h; control for the full effect not named in the record; hit rate 0.21% among 360,000; Potency, µM (doses to about 92.2 µM), for the others: top-dose activity change, negative = less growth; active = well fitted falling curve with a large enough effect; inconclusive = small, poorly fitted or top-dose-only effect; inactive = no such curve, though single readings can be large or run the other way;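 also: % is scaled to controls: 0 for no effect and ±100 for the full control effect; nearly all actives have a fitted effect of over 50% in size; the assay follows cell death caused by Vpr and the record does not say whether a fall means rescue or toxicity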
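Fission yeast strain RE007, carrying one chromosomally integrated HIV-1 vpr copy, was seeded at OD 0.01 in PMG+AL medium with 23 nL pinned compound. After 24 h at 30 °C and 99% humidity, viability was read by BacTiter-Glo luminescence.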
Marburg entry inh: inhibitors of Marburg virus binding or cell entry; Marburg virus pseudotyped entry inhibition, cell reporter; control for the full effect not named in the record; about a third of the inactives were read at about 46 µM; AID 540276; hit rate 1.8% among 300,000; Potency, µM (top dose mostly 37.8 µM), without a hit: at the highest dose activity change, negative = inhibition, usual class: inhibitors; active = well fitted inhibition curve with a large enough effect; inconclusive = small, poorly fitted or top-dose-only effect, or effect the other way; inactive = flat fitted curve, though single readings scatter; tested in HEK293 cells; about a fifth of its hits are not listed in these tables; also: % is scaled to controls: 0 for no effect and ±100 for the full control effect; luciferase read-out
SARS PLpro yeast: SARS-CoV PLP inhibition in yeast | S. cerevisiae expressing SARS-CoV PLpro, growth rescue; control for the full effect not named in the record | Potency, µM (top dose mostly 32.9 µM), inactives show at the highest dose activity, positive = growth rescue | hit rate 0.19% among 330,000; also: 0% is about no effect; nearly all actives have a fitted effect of over 55% in size; growth read by luminescence after 48 h
Active calls of the source: *; & = joins results of further samples; [ ] = remark or other dose. Unless noted, calls follow the shape of the dose curve; as a rule, active means well fitted rising curve with a large enough effect; inconclusive means small, poorly fitted or top-dose-only effect; inactive means no such curve, though single readings can be large or run the other way. Potency is read from the fitted curve at half-maximal effect.

For COCCn1c(C)cc(/C=C(\C#N)C(=O)OCC(=O)Nc2ccc(S(N)(=O)=O)cc2)c1C the results were 2A StopGo -13%, LASV entry inh 7%, RE007 growth inh -6%, Marburg entry inh -10%[46.1 µM] and SARS PLpro yeast 1%.
Screening O=C(Cc1ccccc1[N+](=O)[O-])OCC(=O)c1c[nH]c2ccccc12 returned 2A StopGo 93%[activator], LASV entry inh 22%, RE007 growth inh -8%, Marburg entry inh 12% and SARS PLpro yeast -5%.
Screening C/C(=N\NC1=NCCN1)c1ccccc1 returned 2A StopGo -11%, LASV entry inh 29%, NS1 inh -2%, RE007 growth inh -22%, Marburg entry inh -3% and SARS PLpro yeast -2%.
CCCc1c(C(=O)N2CCN(c3ccccc3OC)CC2)cnn1-c1ccccc1 was read as 2A StopGo inconclusive, LASV entry inh -25%, NS1 inh -6%, RE007 growth inh -1%, Marburg entry inh -36% and SARS PLpro yeast -2%.
Screening O=c1oc2ccccc2cc1-c1ccc(O)cc1 returned Cruzain inh noDet -15%, 2A StopGo 25%, LASV entry inh -3%, Cruzain inh Det -12%, RE007 growth inh 0%, Marburg entry inh inconclusive and SARS PLpro yeast -40%.
For COc1ccc(N2CCN(C(=O)CN(c3ccccc3)S(C)(=O)=O)CC2)cc1 the results were Cruzain inh noDet 12%, 2A StopGo -16%, LASV entry inh 0%, NS1 inh 2%, Cruzain inh Det 6.5%, RE007 growth inh -14%, Marburg entry inh -7% and SARS PLpro yeast 0%.
CCOc1ccccc1N1CC(c2nc3ccccc3n2CCCCOc2ccccc2)CC1=O (configuration not stated) was read as Cruzain inh noDet inconclusive, 2A StopGo -20%, LASV entry inh inconclusive, Cruzain inh Det -14% and Marburg entry inh inconclusive.
For O=C(O)CNc1nc(Cl)ccc1[N+](=O)[O-] the results were Cruzain inh noDet 12%, 2A StopGo 3%, LASV entry inh -8%, NS1 inh -3%, Cruzain inh Det 3.0%, RE007 growth inh 5%, Marburg entry inh -7%[46.1 µM] and SARS PLpro yeast 1%.
For CC(NCCO)C(=O)C12CC3CC(CC(C3)C1)C2 (configuration not stated) the results were Cruzain inh noDet -14%, 2A StopGo -6%, LASV entry inh 5%, NS1 inh 1%, Cruzain inh Det 1.6%, RE007 growth inh -21%, Marburg entry inh inconclusive and SARS PLpro yeast -2%.
C/C=C(\C)CN1CCC(n2nccc2NC(=O)c2ccc(OC)cc2)CC1 was read as 2A StopGo -9%, LASV entry inh 29%[46.1 µM], NS1 inh inconclusive, RE007 growth inh 9%, Marburg entry inh 0%[46.1 µM] and SARS PLpro yeast 0%.
For COc1cccc(C(=O)Nc2ccc(NC(=O)C(C)C)nc2)c1 the results were Cruzain inh noDet 11%, 2A StopGo 11%, LASV entry inh -5%, NS1 inh 8%, Cruzain inh Det 3.5%, RE007 growth inh 6%, Marburg entry inh 16% and SARS PLpro yeast -1%.
CCN(CC)S(=O)(=O)c1ccc2c(c1)N(CC(=O)Nc1cccc(C)c1C)C(=O)C1CCCN21 (configuration not stated) was read as Cruzain inh noDet inconclusive, 2A StopGo -4%, LASV entry inh 0%[46.1 µM] and Cruzain inh Det -4.5%.

Part of the list above in order of count of non-hydrogen atoms, lowest first.
Screening C/C(=N\NC1=NCCN1)c1ccccc1 returned 2A StopGo -11%, LASV entry inh 29%, NS1 inh -2%, RE007 growth inh -22%, Marburg entry inh -3% and SARS PLpro yeast -2%.
For CC(NCCO)C(=O)C12CC3CC(CC(C3)C1)C2 (configuration not stated) the results were Cruzain inh noDet -14%, 2A StopGo -6%, LASV entry inh 5%, NS1 inh 1%, Cruzain inh Det 1.6%, RE007 growth inh -21%, Marburg entry inh inconclusive and SARS PLpro yeast -2%.
CCOc1ccccc1N1CC(c2nc3ccccc3n2CCCCOc2ccccc2)CC1=O (configuration not stated) was read as Cruzain inh noDet inconclusive, 2A StopGo -20%, LASV entry inh inconclusive, Cruzain inh Det -14% and Marburg entry inh inconclusive.

More results follow:
Screening CSc1ncccc1C(=O)OCC(=O)c1ccc(C)s1 returned 2A StopGo 15%, LASV entry inh -2%[46.1 µM], RE007 growth inh 1%, Marburg entry inh 10%[46.1 µM] and SARS PLpro yeast -2%.
`O=C(CSc1ccccc1)NCCSCc1ccccc1` gave Cruzain inh noDet 7%, 2A StopGo 48%[activator], LASV entry inh 8%, NS1 inh -10%, Cruzain inh Det -1.0%, Marburg entry inh inconclusive and SARS PLpro yeast 16%.
For Cc1ccc(NC(=O)N2CCCC2C(=O)Nc2ccc3c(c2)OCCO3)cc1 (configuration not stated) the results were 2A StopGo 1%, LASV entry inh 5%, NS1 inh 12%, RE007 growth inh 4%, Marburg entry inh 2%[46.1 µM] and SARS PLpro yeast -18%.
`Cc1cc2nnc(SCC(=O)N3CCOCC3)n2c2ccccc12` gave 2A StopGo 4%, LASV entry inh 5%, NS1 inh -1%, RE007 growth inh 0%, Marburg entry inh 13%[14.2 µM] and SARS PLpro yeast -1%.
Screening CCCCc1cc(=O)oc2c(CN(C)C)c(O)c(Cl)cc12 returned Cruzain inh noDet inconclusive, 2A StopGo 12%, LASV entry inh 6%, NS1 inh 0%, Cruzain inh Det inconclusive, RE007 growth inh 17%, Marburg entry inh 11%&11% and SARS PLpro yeast 5%.
For COc1ccc(O)c(CNn2c(-c3ccc(Br)cc3)nc3ccccc3c2=O)c1 the results were 2A StopGo inconclusive, LASV entry inh -20%, RE007 growth inh -12%, Marburg entry inh -9%[46.1 µM] and SARS PLpro yeast -5%.
For CCOc1ccc(NC(c2ccccc2)P(=O)(OC)OC)cc1 (configuration not stated) the results were 2A StopGo -1%, NS1 inh 20%, RE007 growth inh -2% and SARS PLpro yeast 8%.
CCn1nnnc1SCC(=O)N1CCc2ccccc21 was read as 2A StopGo 64%[activator], LASV entry inh inconclusive, RE007 growth inh 10% and Marburg entry inh inconclusive.
`COCCNc1nc(NCc2cccc(Cl)c2)c2cnn(C)c2n1` gave Cruzain inh noDet -5%, 2A StopGo inconclusive, LASV entry inh -24%[46.1 µM] and Cruzain inh Det -3.4%.
Screening CCc1nc2ccccc2n1Cc1ccccc1OC returned Cruzain inh noDet -1%, 2A StopGo inconclusive, LASV entry inh 1%, NS1 inh -10%, Cruzain inh Det 3.5%, RE007 growth inh -11%, Marburg entry inh 13% and SARS PLpro yeast 20%.
For COc1ccc(Br)cc1/C=C/C(=O)Nc1ccc(C)cc1 the results were Cruzain inh noDet inconclusive, 2A StopGo -7%, LASV entry inh inconclusive, NS1 inh 12%, Cruzain inh Det -1.3%, RE007 growth inh -5%, Marburg entry inh inconclusive and SARS PLpro yeast -37%.
For CC(=O)Oc1ccc2c(=O)c(N3C(=O)c4ccccc4C3=O)c(C)oc2c1 the results were Cruzain inh noDet -1%, 2A StopGo -23%, LASV entry inh 7%, NS1 inh 7%, Cruzain inh Det 1.6%, RE007 growth inh 0%, Marburg entry inh -30% and SARS PLpro yeast -3%.
Cc1[nH]nc2c1C(c1cccs1)C1=C(CCCC1=O)N2 (configuration not stated) was read as 2A StopGo -3%, LASV entry inh inconclusive, RE007 growth inh -3%, Marburg entry inh -11%[46.1 µM] and SARS PLpro yeast 2%.
For CCc1ncc(CN2CCCCC2C(=O)Nc2ccc(Oc3ccccc3)nc2)cn1 (configuration not stated) the results were 2A StopGo -16%, NS1 inh -3%, RE007 growth inh 1% and SARS PLpro yeast -2%.
Screening O=C(Nc1ccccc1N1CCCCC1)c1cnccn1 returned 2A StopGo inconclusive, LASV entry inh 10%[46.1 µM], NS1 inh -5%, RE007 growth inh -2%, Marburg entry inh inconclusive and SARS PLpro yeast -6%.
`CC(=O)Nc1cccc(-c2cc(C)c3cc4c(cc3n2)OCO4)c1` gave 2A StopGo 28%, LASV entry inh inconclusive, NS1 inh -11%, RE007 growth inh -6%, Marburg entry inh inconclusive and SARS PLpro yeast -2%.
COc1cccc(N(CC(=O)NC2CC3CCC2C3)S(=O)(=O)c2ccccc2)c1 (configuration not stated) was read as 2A StopGo 14%, LASV entry inh -1%, NS1 inh -7%, RE007 growth inh -16%, Marburg entry inh inconclusive and SARS PLpro yeast 1%.
`COc1ccc(/C=C/c2ccc3cccc(O)c3n2)c(OC)c1OC` gave 2A StopGo -29%, NS1 inh -77%, RE007 growth inh inconclusive and SARS PLpro yeast -5%.
CC(=O)c1c(C)[nH]c(C(=O)N2CCN(c3ccc(F)cc3)CC2)c1C was read as Cruzain inh noDet -9%, 2A StopGo -27%, LASV entry inh 4%, NS1 inh -5%, Cruzain inh Det 3.4%, RE007 growth inh 7%, Marburg entry inh 1% and SARS PLpro yeast 0%.
CCCCNC(=S)N(C)/N=C/c1ccc(OCC(=O)Nc2ccc(OC)cc2)c(OC)c1 was read as Cruzain inh noDet -3%, 2A StopGo -24%, LASV entry inh inconclusive, NS1 inh 2%, Cruzain inh Det -6.7%, RE007 growth inh 2%, Marburg entry inh inconclusive and SARS PLpro yeast -2%.
Screening Cc1onc(-c2ccccc2)c1NC(=O)N(CCC#N)Cc1cccs1 returned 2A StopGo -16%, NS1 inh 1%, RE007 growth inh -5% and SARS PLpro yeast 0%.
Screening O=C(Nc1ccc2c3c(cccc13)CC2)c1ccco1 returned Cruzain inh noDet 2%, 2A StopGo 17%, LASV entry inh inconclusive, NS1 inh -44%, Cruzain inh Det -1.8%, RE007 growth inh inconclusive, Marburg entry inh inconclusive and SARS PLpro yeast -7%.
NC(=O)c1ccsc1NC(=O)C1CCN(S(=O)(=O)c2cccs2)CC1 was read as 2A StopGo -21%, LASV entry inh -11%, RE007 growth inh 4%, Marburg entry inh -20% and SARS PLpro yeast 4%.
`Cc1ccc2c(COC(=O)C34CC5CC(CC(C5)C3)C4)cc(=O)oc2c1` gave Cruzain inh noDet inconclusive, 2A StopGo 30%[activator], LASV entry inh -6%, NS1 inh 4%, Cruzain inh Det -0.7%, RE007 growth inh 0%, Marburg entry inh inconclusive and SARS PLpro yeast 11%.
C=C1CCC[C@]2(C)C[C@H]3OC(=O)C(CN4CC(C)OC(C)C4)[C@H]3C[C@@H]12 (some centres not stated) was read as 2A StopGo -19%, NS1 inh 4%, RE007 growth inh -9% and SARS PLpro yeast 0%.
